Bioassay records as filed in PubChem.
Cruzain Triton – inhibitors of Trypanosoma cruzi cruzain with detergent. P25779. Potency, µM, without a hit: max response, negative = inhibition, usual class: inhibitors. purified cruzain, Z-FR-AMC fluorescence, 0.01% Triton. AID 1478. 0.43% of 200,000 active;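 also: plate controls were neutral wells for no effect and buffer without enzyme for full effect; nearly all actives have a fitted effect of over 40% in size; top concentration of the series not given in the record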
Target sequence (P25779 123-467 limits assumed): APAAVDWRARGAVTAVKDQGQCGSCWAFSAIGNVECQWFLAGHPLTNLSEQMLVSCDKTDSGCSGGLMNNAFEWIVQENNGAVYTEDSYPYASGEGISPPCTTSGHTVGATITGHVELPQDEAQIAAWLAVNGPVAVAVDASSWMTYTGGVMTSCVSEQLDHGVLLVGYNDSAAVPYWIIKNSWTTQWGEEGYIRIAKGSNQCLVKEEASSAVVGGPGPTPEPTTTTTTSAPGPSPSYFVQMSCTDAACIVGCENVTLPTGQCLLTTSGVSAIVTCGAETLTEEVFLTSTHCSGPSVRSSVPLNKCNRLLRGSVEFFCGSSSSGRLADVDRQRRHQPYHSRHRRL
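Steps: dispense cruzain (1.5 nM final) in acetate buffer pH 5.5 with DTT and 0.01% Triton X-100; pin-transfer compounds; incubate 15 min RT; add Z-FR-AMC (2 uM final); read fluorescence every 30 s, using the 60 s intensity change.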
Cruzain noTriton – blocks cruzain activity in detergent-free assay; purified cruzain, Z-FR-AMC fluorescence, no detergent; P25779; Potency, µM, without a hit: max response, negative = inhibition, actives largely listed as inhibitors; AID 1476; 2.3% of 200,000 active;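 also: plate controls were enzyme without inhibitor for no effect and buffer without enzyme for full effect; nearly all actives have a fitted effect of over 40% in size; top concentration of the series not given in the record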
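Purified cruzain at 1.5 nM, pre-incubated 15 min with compound at room temperature in 100 mM sodium acetate pH 5.5, 5 mM DTT, 0.00005% Triton X-100. Reaction started with 2 uM Z-FR-AMC; AMC fluorescence increase over 60 s gives rate.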
LASV entry inh – blocks Lassa virus binding to or entry into cells. Lassa virus pseudotype entry inhibition, cell reporter; control for the full effect not named in the record. Potency, µM (highest dose often 37.9 µM), inactives show top-dose activity change, negative = inhibition, actives largely listed as inhibitors. 1.2% of 300,000 active. AID 540256; active means well fitted inhibition curve with a large enough effect; inconclusive means small, poorly fitted or top-dose-only effect, or effect the other way; inactive means flat fitted curve, though single readings scatter; tested in HEK293 cells; also: % is scaled to controls: 0 for no effect and ±100 for the full control effect; nearly all actives have a fitted effect of over 50% in size; luciferase read-out
Marburg entry inh – inhibitors of Marburg virus binding or cell entry. Potency, µM (titrated, usually from 37.8 µM), for inactives: top-dose activity change, negative = inhibition, most hits filed as inhibitors. Marburg virus pseudotyped entry inhibition, cell reporter; control for the full effect not named in the record; about a third of the inactives were read at about 46 µM. 1.8% of 300,000 active; active = well fitted inhibition curve with a large enough effect; inconclusive = small, poorly fitted or top-dose-only effect, or effect the other way; inactive = flat fitted curve, though single readings scatter; tested in HEK293 cells; about a fifth of its hits are not listed in these tables; also: % is scaled to controls: 0 for no effect and ±100 for the full control effect; luciferase read-out
SARS PLP yeast – SARS-CoV PLP inhibition in yeast; S. cerevisiae expressing SARS-CoV PLpro, growth rescue; control for the full effect not named in the record; AID 485353; Potency, µM (titrated, usually from 32.9 µM), without a hit: top-dose activity, positive = growth rescue; 0.19% of 330,000 active; active means well fitted rising curve with a large enough effect; inconclusive means small, poorly fitted or top-dose-only effect; inactive means no such curve, though single readings can be large or run the other way; also: 0% is about no effect; nearly all actives have a fitted effect of over 55% in size; growth read by luminescence after 48 h
NS1 function inh – blocks influenza NS1 protein function; S. cerevisiae slowed by influenza A NS1, growth recovery by OD600; Potency, µM (titrated, usually from 46.1 µM), without a hit: top-dose activity, positive = more growth; 0.4% of 270,000 active; AID 2326; active means well fitted rising curve with a large enough effect; inconclusive means small, poorly fitted or top-dose-only effect; inactive means no such curve, though single readings can be large or run the other way; also: nearly all actives have a fitted effect of over 50% in size
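Recovery from NS1-induced slow growth read by OD600 in budding yeast switched to galactose assay medium (pH 6.0, -URA) at 1:100 dilution. Compound 23 nl per well; the matching strain lacking NS1 serves as control.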
RE007 growth inh – less growth of the S. pombe RE007 Vpr strain; Potency, µM (doses to about 92.2 µM), without a hit: at the top dose activity change, negative = less growth; 0.21% of 360,000 active; AID 651644; S. pombe RE007 Vpr strain, BacTiter-Glo ATP luminescence, 24 h; control for the full effect not named in the record; active = well fitted falling curve with a large enough effect; inconclusive = small, poorly fitted or top-dose-only effect; inactive = no such curve, though single readings can be large or run the other way;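 also: % is scaled to controls: 0 for no effect and ±100 for the full control effect; nearly all actives have a fitted effect of over 50% in size; the assay follows cell death caused by Vpr and the record does not say whether a fall means rescue or toxicity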
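Fission yeast strain RE007, carrying one chromosomally integrated HIV-1 vpr copy, was seeded at OD 0.01 in PMG+AL medium with 23 nL pinned compound. After 24 h at 30 °C and 99% humidity, viability was read by BacTiter-Glo luminescence.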
2A StopGo – lowers the luciferase signal of an FMDV 2A StopGo reporter; 1.2% of 410,000 active; human cells with a luciferase reporter of 2A StopGo recoding; control for the full effect not named in the record; Potency, µM (doses to about 57.9 µM), without a hit: at the highest dose signal change, negative = less light; AID 1159524; active = well fitted falling curve with a large enough effect; inconclusive = small, poorly fitted or top-dose-only effect; inactive = no such curve, though single readings can be large or run the other way; tested in HEK293T cells; also: % is scaled to controls: 0 for no effect and ±100 for the full control effect; nearly all actives have a fitted effect of over 45% in size; luciferase light after 4 h
An asterisk follows results filed as active; ? = inconclusive; nt = not tested or not shown; & = joins results of further samples; [ ] = remark or other dose. Unless noted, calls follow the shape of the dose curve; as a rule, active = well fitted curve in the direction sought with a large enough effect; inconclusive = small, poorly fitted or top-dose-only effect, or another doubt; inactive = no such curve, though single readings can be large; an effect the other way counts as inactive or inconclusive. Potency is read from the fitted curve at half-maximal effect.

SMILES	Cruzain Triton	Cruzain noTriton	LASV entry inh	Marburg entry inh	SARS PLP yeast	NS1 function inh	RE007 growth inh	2A StopGo
Cc1sc2ncnc(Sc3ccccc3C(=O)Nc3ccc(C#N)cc3)c2c1C	-4.6%	12%	?	?	-8%	8%	4%	14%
O=C(O)c1ccc(C(=O)c2ccc3c(c2)C(=O)N(CC2CCCO2)C3=O)cc1 (stereo not drawn)	nt	nt	nt	nt	-1%	0%	-10%	-5%
CCS(=O)(=O)N1CCC(N2CCN(c3ccccc3)CC2)CC1	nt	nt	nt	nt	0%	14%	-9%	-9%
COCCn1c(SCC(=O)NNC(=O)Cc2ccccc2)nc2ccccc2c1=O	nt	nt	6%	5%[46.1 µM]	1%	nt	22%	-21%
COc1ccc(NC(=S)/N=C(\N)Nc2nc(C)c3ccccc3n2)cc1	nt	nt	-26%	?	26%	?	12%	-25%
CC(c1ccco1)N(C(=O)C12CC3(C)CC(C)(CC(C)(C3)C1)C2)c1ccccn1 (stereo not drawn)	-7.3%	7%	-21%	9%	-4%	-2%	-5%	0%
CCC(=O)Nc1ccc2c(c1)nc(CCN1CCCCC1)n2C	nt	nt	nt	nt	-1%	-1%	8%	-20%
CC1CC2(CCCC2)N(C(=O)c2ccccc2)Cc2ccccc21 (stereo not drawn)	-2.9%	0%	1%	?	-28%	-36%	-12%	?
O=C(Nc1ccc(N2CCN(C(=O)c3ccccc3)CC2)c(Cl)c1)c1ccc(Br)o1	-2.4%	?	21µM*	?	-13%	-59%	-14%	-27%
Cc1nnc(SCC(=O)NNC(=O)C(C)C)[nH]c1=O	-0.5%	-15%	29%	3%	22µM*	5%	-1%	-5%
O=C(c1ccc(F)cc1)N1CCC(c2nc3ccccc3s2)CC1	-8.8%	2%	-8%[46.1 µM]	?	nt	nt	nt	-24%
CCOC(=O)COc1c(/C=N\O)cc(Cl)cc1OC	nt	nt	10%	?	-5%	nt	-1%	-13%
Cc1c(Cl)cccc1NC(=O)NCCCN1CCCC1=O	nt	nt	15%[46.1 µM]	?	0%	7%	2%	11%
Cc1ccc(CNC(=O)CCCn2c(=O)c3ccccc3n(CC(=O)Nc3ccc(C)cc3)c2=O)cc1	-1.5%	-4%	-4%[46.1 µM]	-4%[46.1 µM]	nt	nt	nt	-8%
COC(=O)c1cc(NC(=O)c2ccc3c(c2)N(Cc2cccc(Cl)c2)C(=O)c2ccccc2S3=O)cc(C(=O)OC)c1 (stereo not drawn)	-0.1%	-2%	27%[46.1 µM]	nt	nt	nt	nt	-11%
CN1c2ccccc2C(=O)NC1c1ccc([N+](=O)[O-])s1 (stereo not drawn)	nt	nt	2%	22%[46.1 µM]	0%	-1%	30%	-18%
COc1ccc(Cl)c(OC)c1C(=O)NC(=O)Nc1nc(C)nc(C)n1	nt	nt	nt	nt	0%	-4%	-3%	-19%
Cc1ccc(OCC(=O)N/N=C/c2cccn2C)cc1C	nt	nt	nt	nt	-1%	-2%	17%	25%
Cc1nc2ccccc2c(=O)n1-c1ccc(Cl)c(Cl)c1	nt	nt	3%[46.1 µM]	?	1%	-2%	13%	-8%
COCCn1c(C)cc(O)c(C(c2ccccc2Cl)N2CCN(c3ccccc3)CC2)c1=O (stereo not drawn)	0.7%	8%	2%[46.1 µM]	nt	nt	nt	nt	-18%
COC(=O)c1ccc(COn2nnc3ccccc32)cc1	nt	nt	?	?	-7%	nt	3%	49%[activator]
CC(C)NC(=O)C(=O)NCCN1CCN(C(=O)c2ccc(C(C)(C)C)cc2)CC1	nt	nt	-11%[46.1 µM]	-27%[46.1 µM]	0%	-3%	3%	-2%
CC[N+](CC)(CC)CC(=O)Nc1c(C)cccc1C	3.6%&0.8%&-0.8%&-1.0%	6%&1%&-4%&3%	-23%	1%&1%&6%&1%&1%&1%&1%&1%&1%&1%&1%	nt	-5%	2%[18.4 µM]	-15%
CCOC(=O)c1c(-c2ccco2)csc1NC(=O)COC(=O)c1cnccn1	nt	nt	18%	20%	0%	nt	7%	-15%
Cc1cccc(N2C(=O)c3ccc(C(=O)Nc4cccc(C(=O)O)c4)cc3C2=O)c1	nt	nt	nt	nt	-1%	4%	3%	48%[activator]
O=C(CCCOc1ccccc1)N1CCN(S(=O)(=O)c2cccc(F)c2)CC1	nt	nt	28%	13%	-5%	nt	2%	-12%
CCOC(=O)N1CCN(C(=O)CCN2C(=O)c3ccccc3S2(=O)=O)CC1	nt	nt	-14%	1%[46.1 µM]	-9%	nt	15%	-9%
COc1ccccc1Nc1ccc(Nc2ccccc2OC)nn1	-5.3%	3%	-20%	-10%	13%	-3%	1%	28%
Cc1ccc(/C=N/NC(=O)C(c2ccncc2)N2CCOCC2)cc1 (stereo not drawn)	nt	nt	nt	nt	0%	2%	4%	-16%
O=C(Cc1ccccc1)NCCn1ccc2ccccc21	-4.1%	6%	nt	nt	-1%	-4%	0%	-16%
CC(C)C1=NOC(C(=O)N2CCC(N3CCC(C(=O)N4CCOCC4)CC3)CC2)C1 (stereo not drawn)	nt	nt	4%[46.1 µM]	?	0%	3%	13%	-6%
CC(Nc1ccc(Cl)cc1)C(=O)NN (stereo not drawn)	nt	nt	?	4%	-1%	2%	-14%	-10%
CCn1c(COc2cccc(C)c2)nc2ccccc21	-3.3%&-8.9%	-9%&3%	?	-13%	3%	1%	-21%	17%&6%
COc1ccc2nc(-c3ccccc3)nc(SCC(=O)NCC3CCCO3)c2c1 (stereo not drawn)	nt	nt	-9%	?	-1%	-10%	-7%	-23%
Cc1cccc(OCc2n[nH]c(=S)n2-c2ccccc2)c1	nt	nt	10%	3%	0%	10%	1%	0%
Fc1ccc(NC(=S)NCCN2CCOCC2)cc1	nt	nt	16%	14%[46.1 µM]	0%	6%	5%	12%
O=C(N/N=C/c1ccccc1OCC(=O)N1CCCC1)C(=O)Nc1ccccc1F	-4.2%	0%	?	-3%	-3%	5%	3%	53%[activator]
CCN(CC)CCNC(=O)c1cc2c(=O)oc3ccc(C)cc3c2s1	1.3%	-5%	?	19%[46.1 µM]	nt	nt	nt	-26%
Cc1cccc(-n2ncc3c(NCc4ccco4)ncnc32)c1	-10%	-11%	?	?	-22%	-16%	-12%	-16%
COCCCNC(=O)Cn1nnc(-c2ccccc2NC(=O)c2ccc(F)cc2)n1	-0.7%	7%	?	6%	-3%	-10%	-8%	nt
COc1ccc(Cl)cc1C(=O)OCC(=O)N1CCCC(C)C1 (stereo not drawn)	nt	nt	-3%[46.1 µM]	-6%[46.1 µM]	14%	nt	11%	11%
COc1cccc(-n2c(C)nc3cc(C(=O)O)ccc32)c1	-0.9%&1.1%	0%&4%	?	6%&6%	0%	-6%	-21%	-10%
COc1ccc(-c2[nH]ncc2CN(C)C(C)c2ccncn2)c(F)c1 (stereo not drawn)	nt	nt	-8%[46.1 µM]	-8%[46.1 µM]	1%	1%	7%	-16%
COc1ccc(CC2(CO)CCN(C/C=C/c3ccccc3OC)CC2)cc1	nt	nt	?	?	1%	1%	5%	-11%
Cc1cc(-c2nc(C)c(C(=O)NNS(=O)(=O)c3cccc(C(F)(F)F)c3)s2)no1	nt	nt	nt	nt	-2%	1%	8%	14%
COc1cc(NC(=O)c2ccc(N)nc2)cc(C(=O)Nc2cccc(C(F)(F)F)c2)c1	nt	nt	nt	nt	-1%	0%	12%&-11%	13%&17%
COc1cc(O)c(C(=O)/C=C/c2ccccc2)c(OC)c1	-7.0%	15%	nt	nt	-3%	-82%	-9%	25%&-7%
O=C(COc1ccc(F)cc1Br)N1CCN(S(=O)(=O)/C=C/c2ccccc2)CC1	nt	nt	-31%	-28%	0%	nt	-6%	?

Another view of 2 compounds above:
COc1ccc(CC2(CO)CCN(C/C=C/c3ccccc3OC)CC2)cc1
- Cruzain Triton = nt
- Cruzain noTriton = nt
- LASV entry inh = ?
- Marburg entry inh = ?
- SARS PLP yeast = 1%
- NS1 function inh = 1%
- RE007 growth inh = 5%
- 2A StopGo = -11%
COc1ccc(-c2[nH]ncc2CN(C)C(C)c2ccncn2)c(F)c1 (stereo not drawn)
- Cruzain Triton = nt
- Cruzain noTriton = nt
- LASV entry inh = -8%[46.1 µM]
- Marburg entry inh = -8%[46.1 µM]
- SARS PLP yeast = 1%
- NS1 function inh = 1%
- RE007 growth inh = 7%
- 2A StopGo = -16%

Additional records follow:
SMILES	Cruzain Triton	Cruzain noTriton	LASV entry inh	Marburg entry inh	SARS PLP yeast	NS1 function inh	RE007 growth inh	2A StopGo
CCC(CO)Nc1nc2ccc(Cl)cc2c2ccccc12 (stereo not drawn)	nt	nt	?	?	3%	-6%	-3%	-17%
COc1ccc(OC)c(/C=N/N=C2\SCC(=O)N2Cc2ccco2)c1	-11%	-3%	-11%	2%	-2%	6%	nt	-3%
N#CCCn1cc(/C=C2\NC(=S)N(c3ccccc3)C2=O)c(-c2ccc(-c3ccccc3)cc2)n1	nt	nt	-10%	?	0%	9%	-11%	-12%
C/C(=N\NC(=O)c1ccc(C)cc1)C1C(=O)c2ccccc2C1=O	-10%	3%	-13%	-5%	-31%	-15%	-11%	27%
NC(N)=NS(=O)(=O)c1ccc(NC(=S)NC(=O)/C=C/c2ccc(F)cc2)cc1	nt	nt	1%	-21%	11%	29%	6%	0%
COc1cc(CC(=O)OCC(=O)Nc2cc(S(=O)(=O)N3CCCC3)ccc2Cl)cc(OC)c1OC	-1.0%	13%	32%	5%	1%	17%	1%[3.69 µM]	-7%
N#Cc1c(NC(=O)CSc2ncn[nH]2)sc2c1CCCCC2	-12%	-2%	-82%[14.3 µM]	0.46µM*	-1%	-35%	17%	8.9µM*
O=C(CSc1nc2c([nH]c3ccccc32)c(=O)n1-c1ccccc1)Nc1cccc(C(F)(F)F)c1	-1.4%	?	?	nt	nt	nt	nt	-21%
CCOC(=O)c1sc(NC(=O)OC)c(C(=O)OC)c1C	nt	nt	?	?	1%	nt	-15%	-9%
O=C(O)C(Cc1ccc(O)cc1)N1C(=O)c2c(Cl)c(Cl)c(Cl)c(Cl)c2C1=O (stereo not drawn)	nt	nt	3%[46.1 µM]	7%[46.1 µM]	nt	nt	1%	-14%
